# Source: PubChem
# PINK1 modulator = PINK1 expression modulation | Potency, µM (top dose mostly 76.6 µM), for the others: at the top dose activation (PINK1 increase), hits mostly activators | PINK1 immunofluorescence, high-content cytometry, 24 h | 0.2% of 410,000 active | AID 624263; active = well fitted activation curve with a large enough effect; inconclusive = small, poorly fitted or top-dose-only effect; inactive = flat fitted curve, though single readings scatter; cell line not stated here;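 also: potency is read from the fitted curve at half-maximal effect; % of control where 0% means no effect; nearly all actives have a fitted effect of over 65% in size; a mitochondrial uncoupler was the plate control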
#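 Fluorescence from anti-PINK1 antibody, together with nuclear and cell stains, was scanned on a laser-scanning cytometer. Before staining, stable-line cells were incubated 24 hours with compounds at 5 concentrations; primary antibody 12 h at 10 degrees C.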
# Menin-MLL FL inh = inhibitors of human menin-MLL interaction, wild-type MLL peptide. Fluorescence polarization, fluorescein-MLL peptide displacement from menin. FP activity change, % at 61.4 µM. 290,000 tested, under 10 active; inconclusive = falling polarisation curve, or a change in total fluorescence; inactive = total fluorescence flat and polarisation flat or rising; no compound was filed as active; the % refers to the polarisation; negative = inhibition;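 also: % of control where 0% means no effect; inhibitors lower the polarisation; unlabelled MLL peptide was the positive control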
# TRPML1 inh = human mucolipin-1 channel inhibition | Q9GZU1 | 0.02% of 390,000 active | TRPML1-inducible cells, Ca2+ dye fluorescence, FDSS; hits give low values; inhibition of EC80 agonist-evoked calcium signal | activity change, negative = inhibition, % (concentration not given with the values); in the data active means activity change below about -50%; inconclusive means about -30% to -50%; inactive means above about -30%;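 also: stimulus is agonist 54-4 at its EC80 concentration; % is scaled to controls: 0 for no effect and ±100 for the full control effect; compound concentration not given in the record; the text of the record puts the active cut at -80%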
# Target sequence (Q9GZU1 whole entry, looked up): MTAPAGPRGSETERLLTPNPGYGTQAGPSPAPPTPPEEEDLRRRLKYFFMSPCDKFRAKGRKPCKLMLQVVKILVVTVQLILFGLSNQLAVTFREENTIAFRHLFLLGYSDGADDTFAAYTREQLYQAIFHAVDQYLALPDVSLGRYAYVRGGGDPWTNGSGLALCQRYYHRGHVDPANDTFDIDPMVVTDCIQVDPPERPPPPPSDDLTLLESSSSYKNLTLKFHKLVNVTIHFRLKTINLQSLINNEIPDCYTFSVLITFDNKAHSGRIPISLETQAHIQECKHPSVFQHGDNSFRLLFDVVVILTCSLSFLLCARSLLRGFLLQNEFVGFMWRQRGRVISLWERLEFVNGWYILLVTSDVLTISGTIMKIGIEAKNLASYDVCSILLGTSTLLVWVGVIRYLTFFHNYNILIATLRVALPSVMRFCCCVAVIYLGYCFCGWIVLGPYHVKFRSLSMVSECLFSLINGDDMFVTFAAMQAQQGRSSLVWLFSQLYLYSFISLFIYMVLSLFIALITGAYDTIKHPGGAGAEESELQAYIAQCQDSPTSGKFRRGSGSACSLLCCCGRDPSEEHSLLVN
#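 TRPML1-DL cells, Tet-induced overnight (~16 h, 37 °C) at 1,500 cells/well, were loaded with Ca8 no-wash dye plus quencher for 45-90 min at room temperature. Compounds were pinned during FDSS kinetic reading; agonist 54-4 at EC80 (4 uM final) then added.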
# TRPV1 PAM = potentiators of human vanilloid receptor 1 (TRPV1) | TRPV1-expressing cells, Fluo-8 calcium influx, capsaicin EC20 potentiation; host cell line not named in the record; control for the full effect not named in the record | potentiation, % at 8.33 µM | 0.02% of 320,000 active | AID 540277; active means potentiation above 80%; inconclusive means 30% to 80%; inactive means below 30%; also: 0% is about no effect
#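 TRPV1-expressing cells were cultured overnight at 35.5C and loaded with Fluo-8 calcium dye for 40 to 90 min at room temperature. After a 10 s baseline, compound was added and calcium influx was read kinetically for 3 min (ex 480/em 520 nm).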
# ClpP mod = qHTS Assay for Activators of ClpP; ATP-dependent Clp protease proteolytic subunit (Bacillus subtilis (strain 168)), P80244; purified B. subtilis ClpP, FRET peptide cleavage, 20 min; Potency, µM (series often up to 57.5 µM), inactives show at the top dose activity change, negative = active; 1.9% of 340,000 active; AID 651965, 2013; active = well fitted falling curve with a large enough effect; inconclusive = small, poorly fitted or top-dose-only effect; inactive = no such curve, though single readings can be large or run the other way; also: potency is read from the fitted curve at half-maximal effect; the source files actives as falling curves though it sought activators and does not explain the sign; nearly all actives have a fitted effect of over 65% in size; many hits overshoot -100%
# Target sequence (P80244 whole entry, looked up): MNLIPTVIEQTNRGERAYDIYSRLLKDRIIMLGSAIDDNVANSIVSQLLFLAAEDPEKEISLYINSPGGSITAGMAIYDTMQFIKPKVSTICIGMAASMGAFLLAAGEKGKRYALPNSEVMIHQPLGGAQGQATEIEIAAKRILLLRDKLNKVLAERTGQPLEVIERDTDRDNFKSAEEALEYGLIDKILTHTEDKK
#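 Purified B. subtilis ClpP, 10 microg/mL final in Tris/HCl pH8 with KCl, BSA, glycerol and Tween-20, cleaved an Abz/nitrotyrosine-quenched decapeptide. Fluorescence (ex 320, em 430) was read at 0 and 20 min at room temperature. Delta was normalized to 5.8 microM ADEP and DMSO/no-enzyme controls.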
# Sfp inh = blocks B. subtilis Sfp PPTase activity; AID 1490; Potency, µM, for inactives: max response, negative = inhibition, most hits filed as inhibitors; Biochemical Sfp PPTase activity, qHTS; Q9F4F7; 3.5% of 310,000 active; active = well fitted inhibition curve with a large enough effect; inconclusive = small, poorly fitted or top-dose-only effect, or another doubt; inactive = no such curve, though single readings can be large or run the other way;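 also: the enzyme is Sfp with the accession as filed and its product quenches rhodamine fluorescence; potency is read from the fitted curve at half-maximal effect; 0% = enzyme reaction without inhibitor and -100% = no enzyme wells; top concentration of the series not given in the record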
#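 After 15 min at room temperature with compound, 15 nM Sfp received 5 uM rhodamine-CoA plus 12.5 uM BHQ-2-ybbR (50 mM Hepes pH 7.6, 10 mM MgCl2). Rate came from the fluorescence difference over 30 min, ex 525/em 598 nm.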
# TRPML1 ag = agonists of human TRPML1 channel | Q9GZU1 | TRPML1-expressing cells, Ca2+ dye fluorescence, FDSS; host cell line not named in the record; reference of the full effect not given here | activation, % (concentration not given with the values) | 0.12% of 410,000 active | AID 624414; in the data active = activation above about 50%; inconclusive = about 30% to 50%; inactive = below about 30%; also: 0% is about no effect; the text of the record puts the active cut at 80%
#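 Tet-induced TRPML1-DL cells, 1,500 per well, cultured overnight, were loaded with a no-wash Ca2+ dye for 45–90 min. Calcium fluorescence was recorded on the FDSS for 110 s after compound addition, before the EC80 agonist (4 uM 54-4) was added.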
# An asterisk follows results filed as active; u = inconclusive; x = no result given; [ ] = dose if it differs, or a comment.
SMILES,PINK1 modulator,Menin-MLL FL inh,TRPML1 inh,TRPV1 PAM,ClpP mod,Sfp inh,TRPML1 ag
CCOC(=O)C(C)Sc1nnc(NC(=O)c2ccc(C)c([N+](=O)[O-])c2)s1 (configuration not stated),0.5%,2.1,-4.8,1.7,-1.6%,7.9%,1.0
Cc1cc(CN2CCCC(CO)(Cc3cccc(Cl)c3)C2)n[nH]1 (configuration not stated),-1.0%,2.0,-9.7,9.4,x,6.6%,-0.5
O=c1cnc2cnc(OCc3ccccc3)nc2n1Cc1ccc(F)cc1,-0.3%,9.1,x,x,x,-3.8%,x
CC(C)(C)c1cc(CCC(=O)N2CCC2)cc(C(C)(C)C)c1O,2.4%,x,-12.6,-4.9,0.9%,5.5%,1.4
Cn1nnnc1SCC(=O)NC1CCCC1,-0.3%,x,20.5,-3.7,x,9.6%,1.5
CCOC(=O)C(C(=O)Cc1ccccc1)c1ccccc1 (configuration not stated),0.4%,x,-8.8,x,x,x,1.6
O=S(=O)(c1cccc(-c2n[nH]c(=S)n2-c2ccccc2Cl)c1)N1CCOCC1,1.3%,x,-1.6,x,-10.0%,x,0.0
CCCSCCCNC(=O)c1ccc(Cn2c(=O)c3cccn3c3cccnc32)cc1,4.4%,x,-12.1,x,3.9%,x,0.1
Cc1cc(Nc2cccc(C)c2C)n2cnnc2n1,1.8%,x,3.6,x,0.0%,x,-0.5
O=S(=O)(NCCS(=O)(=O)N1CCN(c2ccc(F)cc2)CC1)c1ccc(F)cc1,1.7%,x,-12.2,x,2.2%,x,-0.7
COc1cccc(NC(=S)NNC(=O)C(C)n2nc(C)c([N+](=O)[O-])c2C)c1 (configuration not stated),19.5%[38.3 µM],0.5,-12.6,-0.8,-1.1%,20.8%,0.1
Cn1c(SCc2nc(-c3ccc(Cl)cc3)no2)nnc1-c1cccs1,5.9%,2.5,-17.5,7.3,4.5%,-12.0%,3.9
COc1ccc(C(=O)Nc2ccccc2C(=O)NCc2ccco2)cc1OC,-0.1%[38.3 µM],1.6,-10.6,2.0,-2.4%,-24.1%,-0.4
CCS(=O)(=O)N1CCCC(C(=O)NCCc2ccc(C)cc2)C1 (configuration not stated),-0.2%,2.4,-3.2,7.5,-0.9%,-4.3%,-0.4
COc1ccccc1C1NC(c2ccccc2OC)C(C)C(=O)C1C (configuration not stated),u,-0.1,-8.0,-1.6,-2.2%,4.6%,3.2
CCOc1ccc(N(CC(=O)NC2CC3CCC2C3)S(=O)(=O)c2ccc(C)cc2)cc1 (configuration not stated),4.8%,x,14.3,-12.5,-1.7%,-8.2%,2.0
CC1(C)Cc2c(c(-c3ccco3)nc3n[nH]c(N)c23)CO1,1.0%,0.3,1.5,10.5,-5.5%,2.6%,-0.9
CCOc1ccc(-n2nc3ccc(NC(=O)COc4ccc(OC)cc4)cc3n2)cc1,2.6%,x,3.1,x,4.2%,x,-0.6
CC(C)(C)OC(=O)N1CCC(c2c(C(=O)NCc3cccc(Cl)c3)cnn2-c2ccc(F)cc2)CC1,0.9%,x,-3.1,x,-0.2%,x,2.8
COC(=O)c1ccc(C)c(NC(=O)CCSc2ccc(Cl)cc2)c1,1.0%,3.6,19.2,u,0.7%,u,2.8
COc1ccc(CC(=O)Nc2nc(-c3cccnc3)cs2)cc1,10.4%,-0.4,14.6,4.1,-24.8%,2.8%,1.1
Cc1ccc(CN2CCN(Cc3cn(C(C)C)c4ccccc34)CC2CCO)o1 (configuration not stated),-0.7%,u,7.1,-5.5,x,u,-0.9
COCCCN(C(=S)Nc1cccc(Cl)c1)C(C)c1ccncc1 (configuration not stated),2.2%,x,-5.0,-13.4,4.8%,-15.0%,-0.7
COc1ccc(NC(=O)CCc2nc3ccccc3[nH]2)cc1,0.9%,-6.6,-0.9,22.1,x,10.9%,-0.8
CN(C)Cc1c(C(=O)N/N=C/c2ccc(-c3ccccc3)cc2)nnn1-c1nonc1N,-0.2%,2.2,21.3,25.7,-3.8%,4.6%,0.8

# Following part:
SMILES,PINK1 modulator,Menin-MLL FL inh,TRPML1 inh,TRPV1 PAM,ClpP mod,Sfp inh,TRPML1 ag
CC(=O)Nc1ccc(NC(=O)C(C)OC(=O)C2CCCCC2)cc1 (configuration not stated),2.7%,x,10.4,10.2,-1.6%,x,0.5
COCCCN(C(=O)c1ccc(N2CCCC2=O)cc1)c1c(N)n(Cc2ccccc2)c(=O)[nH]c1=O,-0.3%,x,18.7,9.1,-6.7%,x,0.6
C#CCn1c(COc2ccccc2C)nc2ccccc21,1.9%,x,-14.5,x,3.0%,x,2.5
COc1ccc(N(C(=O)/C=C\C(=O)Nc2ccc(C)cc2)C(C(=O)NCc2ccco2)c2ccc(C)cc2)cc1 (configuration not stated),-0.6%,x,6.3,x,1.9%,x,-0.4
Cc1ccc(Cc2c(-c3ccco3)nc3c(C)cc(Br)cn23)cc1,3.8%,x,29.4,x,-7.6%,x,-0.4
c1ccc2c(c1)CC1(CCCC1)N=C2N1CCOCC1,0.5%,0.2,x,-18.3,-1.2%,3.8%,x
Cc1cccc(-n2c(SCC(=O)N3CC(=O)Nc4ccccc43)nc3ccccc3c2=O)c1,-0.3%,u,40.2,u,-0.2%,-23.8%,6.4
CC1CN(C(=O)Cn2c(C(F)(F)F)nc3ccccc32)CC(C)O1 (configuration not stated),-0.7%,0.2,4.6,-7.4,-2.1%,18.7%,0.2
COCC(C)N1C(=O)Cc2c1nc(N)c1c(N)nc(N3CCN(c4ccccc4F)CC3)c(C#N)c21 (configuration not stated),-1.8%,1.8,-21.5,1.6,x,-3.4%,1.0
O=C(/C=C/c1cnc2ccccc2n1)NC12CC3CC(CC(C3)C1)C2,8.1%,2.9,2.8,-6.4,2.5%,-19.3%,3.3
CN(Cc1nccs1)C(=O)c1ccc(OC2CCN(Cc3ccccn3)CC2)cc1,0.7%,-2.3,6.5,14.1,-2.2%,-2.6%,0.8
CCc1nccn1CCC(=O)NC1CC(C)(C)Cc2c1cnn2-c1cccc(F)c1 (configuration not stated),1.1%,x,-29.1,-17.0,-1.1%,18.0%,0.0
COc1ccc(NC(=S)N2CCN(c3ccc([N+](=O)[O-])cc3)CC2)cc1OC,0.0%,6.9,21.4,4.4,x,22.4µM*,-0.4
C[C@H](CO)N1C[C@H](C)[C@@H](CN(C)C(=O)Nc2ccc(C(F)(F)F)cc2)Oc2c(NS(=O)(=O)c3cn(C)cn3)cccc2C1=O,1.6%,x,-8.0,x,-10.8%,x,-0.4
Cc1ccsc1C(=O)N1CCC1(C)C(=O)NCc1cccc2ccccc12 (configuration not stated),0.2%,x,9.0,x,2.8%,x,-0.6
COc1ccc(N2C(=O)CSC2c2cccc(F)c2)cc1 (configuration not stated),0.2%,-5.6,21.3,-0.1,x,-3.7%,-1.1
Cc1ccc(Cn2nc3n(c2=O)-c2cc(Cl)ccc2OC3)cc1,0.9%,x,-0.5,x,0.3%,x,-0.3
COc1cc(-c2noc(-c3ccccc3C(=O)NCc3ccco3)n2)cc(OC)c1OC,4.7%,1.8,3.9,10.8,-2.5%,19.5%,0.9
Cc1ccc(N2C(=O)c3ccc(C(=O)O)cc3C2=O)c(C)c1,1.4%,x,1.6,u,-1.1%,0.2%,0.6
CCOC(=O)c1c(NC(=O)CSc2n[nH]c(CNc3ccccc3)n2)sc(C)c1C,19.3%[38.3 µM],-1.6,9.6,18.5,-3.5%,-14.5%,5.4
CCCCN(C)CCNC(=O)CCn1nc(-c2ccc(Cl)cc2)ccc1=O,-0.7%,-0.2,3.0,-3.6,-29.2%,2.4%,-0.4
COC(C/C=C/C(=O)COCc1ccccc1)OC,10.5%,1.8,18.3,12.9,1.2%,3.8%,-0.6
COc1ccc(C(CCNCc2ccc(N(C)C)cc2)c2ccccc2OC)cc1 (configuration not stated),-4.1%,-5.4,4.3,-1.9,-2.4%,-6.4%,2.7
COc1ccc(N(CC(=O)NC2CC3CCC2C3)S(=O)(=O)c2ccc(C)c([N+](=O)[O-])c2)cc1 (configuration not stated),2.8%,1.6,-0.6,-3.2,x,5.0%,0.9
Cc1cccc(NC(=S)NCCc2ccccn2)c1,1.4%,-0.6,26.3,-0.2,0.5%,-22.5%,-0.7

# Continued.
SMILES,PINK1 modulator,Menin-MLL FL inh,TRPML1 inh,TRPV1 PAM,ClpP mod,Sfp inh,TRPML1 ag
CCn1cc(C(=O)NCc2ccccc2)c(=O)c2cc(S(=O)(=O)N3CCCCC3)ccc21,2.6%,x,-14.6,x,0.5%,x,-0.5
Cc1ccc2nc(-c3ccc(O)cc3)oc2c1,-1.4%,-5.9,-5.4,-0.9,x,12.9%,-0.3
Cn1cncc1C#Cc1ccc2cc(CCCO)oc(=O)c2c1,0.2%,x,42.1,1.9,4.5%,x,0.5
CCCc1cc(=O)oc2cc3oc(C)c(C)c3cc12,6.6%,2.0,4.3,-22.0,-6.9%,10.3%,0.5
Cc1ccc(C(=O)Nc2scc(-c3ccccc3)c2C(=O)O)cc1,-0.9%,x,22.9,x,x,x,0.1
CC1CCCN(c2ccc(C(=O)Nc3nnc(C4CC4)s3)cc2[N+](=O)[O-])C1 (configuration not stated),1.8%,-1.5,13.2,-4.6,-0.8%,13.6%,1.0
O=C(Nc1cnccn1)Nc1ccccc1Cl,-0.5%,0.5,5.9,-11.2,x,21.0%,-0.8
CCCNC(=O)CN1CCN(c2ncc(NC(=O)c3ccc(Cl)cc3)cc2C(=O)O)CC1,-0.5%,x,-4.3,x,-1.3%,x,-1.1
CCOC(=O)[C@H]1[C@H]2COc3ccc(OC)cc3[C@@H]2N2C(=O)[C@H](C)NC(=O)[C@@]12C,-1.2%,x,38.8,0.4,-0.9%,x,-0.5
Cc1ccc(C(=O)Nc2ccc(S(=O)(=O)N3CCCC3)cc2)cc1,4.4%,3.9,12.3,-40.4,x,7.2%,0.4
O=C(O)Cc1sc(Nc2ccccc2)nc1-c1ccc(Cl)cc1,0.7%,-0.5,19.4,10.5,x,u,-0.6
CC(NC(=O)C(C(=O)c1cccc([N+](=O)[O-])c1)n1cc(Cl)ccc1=O)c1ccccc1 (configuration not stated),6.6%,-0.7,-10.7,25.9,-1.7%,4.6%,-0.1
Cc1ccc(S(=O)(=O)NCCC(=O)N2CCCC(C)C2)cc1 (configuration not stated),-0.5%,x,-8.0,-3.2,x,x,-0.1
